From PubChem BioAssay
GIRK2 activ: opens human GIRK2 potassium channels; 63,000 tested, 0.05% active; HEK293-GIRK2 thallium flux, Thallos fluorescence; calls only for hits at 25 µM;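 active = among the strongest 0.2% of first-round signals and kept after retests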;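 note: first round at about 10 µM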
Target sequence (P48051 whole entry, looked up): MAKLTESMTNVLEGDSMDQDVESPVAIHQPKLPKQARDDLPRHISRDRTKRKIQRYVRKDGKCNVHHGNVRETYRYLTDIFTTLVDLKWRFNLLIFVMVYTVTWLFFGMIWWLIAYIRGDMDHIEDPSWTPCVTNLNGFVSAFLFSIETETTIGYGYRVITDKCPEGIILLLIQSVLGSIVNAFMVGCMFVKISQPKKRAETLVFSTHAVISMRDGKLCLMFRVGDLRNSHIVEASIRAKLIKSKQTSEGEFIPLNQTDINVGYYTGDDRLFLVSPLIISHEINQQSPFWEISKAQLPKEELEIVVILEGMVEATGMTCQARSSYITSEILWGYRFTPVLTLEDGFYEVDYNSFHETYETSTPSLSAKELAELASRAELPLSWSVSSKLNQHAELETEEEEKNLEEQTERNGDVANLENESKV
Calls only; i = inactive. Not all compounds are listed. The share of hits here may be higher or lower than overall.

entry	GIRK2 activ	SMILES
1	i	Cc1ccc(CNC(=O)CSc2ncccc2-c2nc(C)no2)cc1
2	i	CCOc1ccc(C2NC(=O)NC(C)=C2[N+](=O)[O-])cc1OC (configuration not stated)
3	i	O=C(Nc1cccs1)Nc1nc(-c2cc3ccccc3o2)cs1
4	i	Cc1sccc1C(N)=O
5	i	COc1cccc(NC(=O)CN2C(=O)NC3(CCCCC3C)C2=O)c1 (configuration not stated)
6	i	COc1ccc(-c2c[nH]c3c(SCC(=O)Nc4ccc5c(c4)OCO5)ncnc23)cc1
7	i	COc1ccc(S(=O)(=O)N2CCCOC2CNC(=O)C(=O)NCc2ccncc2)cc1C (configuration not stated)
8	i	Cn1nnn(-c2ccc(NC(=O)CSCc3ccccc3)cc2)c1=O
9	i	COc1ccccc1-c1nnc(NC(=O)c2ccc(OC(C)C)cc2)o1
10	i	COc1cc(C)c(C)cc1S(=O)(=O)N1CCC2(CC1)OCCCO2
11	i	Cn1c(=O)c(Cc2ccccc2F)cc2cnc(NC3CCOCC3)nc21
12	i	CC(=O)Cn1c(=O)c2c(nc3n(-c4ccc(F)cc4)c(C)cn23)n(C)c1=O
13	i	COC(=O)CS(=O)(=O)C1CCN(C(=O)NC23CC4CC(CC(C4)C2)C3)CC1
14	i	CCOc1cccc2sc(N(CCN3CCOCC3)C(=O)c3ccc(Br)s3)nc12
15	i	Cc1ccccc1NC(=O)c1ccc(CSc2ncccn2)cc1
16	i	CCn1c(SCC(=O)Nc2cccc(C)c2)nc2c3cc(OC)ccc3n(C)c2c1=O
17	i	CCCCN1C(=O)CCc2cc(NC(=O)c3ccc(OC)c(OC)c3)ccc21
18	i	CCc1ccc(OC)c(S(=O)(=O)N(Cc2ccsc2)Cc2ccco2)c1
19	i	CCOC(=O)COc1cc(O)cc2oc(-c3ccccc3)cc(=O)c12
20	i	O=C(Cn1nc2c(SC3CCCCC3)nccn2c1=O)NCc1ccc(F)cc1
21	i	COc1ccc(N2C(=O)C(F)(F)C2c2ccc(F)cc2)cc1 (configuration not stated)
22	i	Cc1cc(C(=O)Nc2nc(C(=O)N3CCN(C(=O)c4ccco4)CC3)co2)no1
23	i	CSCC(C)(O)CNS(=O)(=O)c1cn(C)cn1 (configuration not stated)
24	i	Cc1cn2c3c(=O)[nH]c(=O)n(C)c3nc2n1CCN(C)Cc1ccccc1
25	i	COCCNC(=O)c1ccc(CNS(=O)(=O)c2cccc(C(F)(F)F)c2)cc1

Retrieved by compound from the entries so far (seven):
entry	GIRK2 activ	SMILES
15	i	Cc1ccccc1NC(=O)c1ccc(CSc2ncccn2)cc1
23	i	CSCC(C)(O)CNS(=O)(=O)c1cn(C)cn1 (configuration not stated)
5	i	COc1cccc(NC(=O)CN2C(=O)NC3(CCCCC3C)C2=O)c1 (configuration not stated)
4	i	Cc1sccc1C(N)=O
21	i	COc1ccc(N2C(=O)C(F)(F)C2c2ccc(F)cc2)cc1 (configuration not stated)
11	i	Cn1c(=O)c(Cc2ccccc2F)cc2cnc(NC3CCOCC3)nc21
18	i	CCc1ccc(OC)c(S(=O)(=O)N(Cc2ccsc2)Cc2ccco2)c1

(list continues)
entry	GIRK2 activ	SMILES
26	i	CN(Cc1ccccc1)C(=O)c1nnn(-c2ccc(Cl)cc2)c1-c1cccnc1
27	i	COc1ccc(NC(=O)CSc2nnc(C)c3cnn(-c4ccc(F)cc4)c23)c(OC)c1
28	i	Cc1cc(O)c(C(=O)c2c(C)c(O)c3c(c2O)[C@@H]2C[C@@]3(O)[C@]3(C)Oc4cc(C)cc(O)c4C(O)=C3C2=O)c(O)c1
29	i	CCOC(=O)Cc1csc(NC(=O)CN2CCC(COCc3ccc(F)cc3)CC2)n1
30	i	O=C1NC(=NCc2ccccc2Cl)S/C1=C\c1ccc2ncccc2c1
31	i	Cc1ccc(C)c2sc(N(C)CC(=O)N3CCN(c4ccccn4)CC3)nc12
32	i	CCOC(=O)C1=C(C)N=c2s/c(=C/c3cnn(CC)c3C)c(=O)n2C1c1ccc(O)cc1 (configuration not stated)
33	i	CCOc1ccccc1C(=O)Nc1ccc(-n2nnc(C(=O)NCC(F)(F)F)n2)cc1
34	i	CC1CCCCC12NC(=O)N(CC(=O)Nc1ccc3c(c1)OCO3)C2=O (configuration not stated)
35	i	COc1ccc(NC(=O)N2CCN(c3cc(Nc4ccccn4)ncn3)CC2)cc1
36	i	CCCS(=O)(=O)N1CCCc2ccc(NS(=O)(=O)c3ccc(OC)cc3)cc21
37	i	Cc1cn2c3c(=O)n(CCCc4ccccc4)c(=O)n(C)c3nc2n1CCCN1CCOCC1
38	i	O=C(CCN1C(=O)c2ccccc2S1(=O)=O)Nc1ccc2c(c1)OCCO2
39	i	O=C(c1ccc([N+](=O)[O-])cc1)N1CCN(Cc2nc(C3CC3)cs2)CC1
40	i	CC(C)c1nnc(SCC(=O)NC2CCCC2)c2c1cnn2-c1ccccc1
41	i	COc1ccc([C@H]2OC[C@H]3[C@@H]2CO[C@@H]3c2ccc(O[C@@H]3O[C@H](CO)C(O)[C@H](O)[C@H]3O)c(OC)c2)cc1OC (some centres not stated)
42	i	COc1cc(NC(=O)N2CCC(Oc3ccc(Cl)cn3)CC2)cc(OC)c1
43	i	O=C(COc1ccc(Cl)cc1)N1CCN(c2ccc(-c3noc(C4CC4)n3)cn2)CC1
44	i	CCOc1ccc(NC(=O)CSc2nnc(-c3ccc(OC)c(OC)c3)n2N)cc1
45	i	O=S(=O)(NCCCn1ccnc1-c1ccccc1)c1c(F)cccc1F
46	i	CCOC(=O)c1c(S(=O)(=O)N2CCCCCCC2)n[nH]c1CC
47	i	COc1cccc(S(=O)(=O)N2CCC(CSc3ccccn3)CC2)c1
48	i	O=C(c1cc(-c2ccc(F)c(F)c2)on1)N1CCC(Cn2ccnc2)CC1
49	i	CCOC(=O)C1=NNC2C(=O)N(Cc3ccccc3)C(=O)C12 (configuration not stated)
50	i	Cn1cccc1CN(Cc1cccs1)C(=O)c1cc2ccccc2oc1=O
51	i	O=C(c1ccco1)N(C(=O)N1CCCCC1)c1ccccc1
52	i	O=C(CSc1nccn2nc(-c3ccccc3)cc12)NC1CCCCC1
53	i	Cc1cc(C(F)(F)F)c(C#N)c(SCc2ccc(C#N)cc2)n1
54	i	CCn1c(C)cc(=O)c2cc(C(=O)Nc3cccc(OC)c3)ccc21
55	i	CCN(CC)c1ccc(-c2noc(CN3CCC4(CC3)OCCO4)n2)cn1
56	i	COc1ccc(CNC(=O)CSc2nccn2-c2cccc(C(=O)NCc3ccc(C)o3)c2)cc1
57	i	COc1cc(-c2cc(=O)c3cc(Cl)cc(Cl)c3o2)cc(OC)c1OC
58	i	CCCCC(=O)O[C@H]1CC[C@H]2[C@@H]3CCc4cc(O)ccc4[C@H]3CC[C@]12C
59	i	CC1=C(C(=O)Nc2ccccc2)C(c2ccc(C)o2)n2c(s/c(=C/c3cnn(C)c3C)c2=O)=N1 (configuration not stated)
60	i	CCc1cc(=O)[nH]c(-n2nc(C)cc2NC(=O)NC2CCCCC2)n1
61	i	O=C(NCC1CCN(C(=O)c2cc3ccccc3o2)CC1)NC1CCCCCC1
62	i	OC(CNCc1ccco1)Cn1c2c(c3cccc(Cl)c31)CCCC2 (configuration not stated)
63	i	COc1ccc(N2C=C(C#N)S(=O)(=O)c3ccccc32)cc1
64	i	COC(=O)c1cccc(NC(=O)C2CCN(c3c(C#N)cnc4ccccc34)CC2)c1
65	i	Cc1ccc(Nc2nc(NCCCO)nc3n[nH]nc23)cc1
66	i	COc1ccc2cc(CNc3ccc(C)cc3)c(=O)n(CC(=O)NCc3ccccc3)c2c1
67	i	COc1ccc(CC(=O)Nc2cc(-n3ccc4ccccc43)ncn2)cc1OC
68	i	CCCN1CCCc2cc(CCNC(=O)C(=O)Nc3cccc(Cl)c3C)ccc21
69	i	CC(=O)c1cccc(NC(=O)Cn2cccc(-c3nc(-c4ccccc4)no3)c2=O)c1
70	i	COC(=O)CSc1nc2sc3c(c2c(=O)n1-c1ccc(C(=O)O)cc1)CCCC3
71	i	COc1ccc(NC(=O)Cn2nc(-c3cccs3)c3sc(N4CCCC4)nc3c2=O)cc1OC
72	i	CCOc1ccc2c(c1)O/C(=C\c1cccs1)C2=O
73	i	COc1cccc2cc(C(=O)N3CC4(COC(C)(C)OC4)C3)oc12
74	i	Cc1nc(-c2ccc(F)cc2)sc1-c1cc(C(=O)N2CCc3ccccc3C2)n[nH]1
75	i	COc1ccc(NC(=O)c2ccc(Cl)cc2Cl)c2ccccc12

In the list so far, 9 contain a furan ring, fused or not:
entry	GIRK2 activ	SMILES
3	i	O=C(Nc1cccs1)Nc1nc(-c2cc3ccccc3o2)cs1
18	i	CCc1ccc(OC)c(S(=O)(=O)N(Cc2ccsc2)Cc2ccco2)c1
22	i	Cc1cc(C(=O)Nc2nc(C(=O)N3CCN(C(=O)c4ccco4)CC3)co2)no1
51	i	O=C(c1ccco1)N(C(=O)N1CCCCC1)c1ccccc1
56	i	COc1ccc(CNC(=O)CSc2nccn2-c2cccc(C(=O)NCc3ccc(C)o3)c2)cc1
59	i	CC1=C(C(=O)Nc2ccccc2)C(c2ccc(C)o2)n2c(s/c(=C/c3cnn(C)c3C)c2=O)=N1 (configuration not stated)
61	i	O=C(NCC1CCN(C(=O)c2cc3ccccc3o2)CC1)NC1CCCCCC1
62	i	OC(CNCc1ccco1)Cn1c2c(c3cccc(Cl)c31)CCCC2 (configuration not stated)
73	i	COc1cccc2cc(C(=O)N3CC4(COC(C)(C)OC4)C3)oc12

Further compounds.
entry	GIRK2 activ	SMILES
76	i	FC(F)(F)c1nc2ccccc2n1CC1CCN(Cc2cn3ccccc3n2)CC1
77	i	Cn1nc(C(=O)N2CCC(Cn3ccnc3-c3ccccc3)CC2)ccc1=O
78	i	CCCOc1ccc(-c2nc(C#N)c(N3CCN(C(=O)c4ccco4)CC3)o2)cc1
79	i	COc1ccccc1C(=O)Nc1ccccc1NC(=O)NCCCc1ccccc1
80	i	CCCCCn1c(=S)[nH]c2cc(C(=O)Nc3ccccc3F)ccc2c1=O
81	i	Cc1ccc2c(CC(=O)Nc3ccc(S(=O)(=O)Nc4ncccn4)cc3)cc(=O)oc2c1
82	i	CN(C)CC1COCCN1C(=O)c1ccc(F)cc1F (configuration not stated)
83	i	Cc1noc(C2CN(CC(=O)Nc3ccc(Br)cc3)C2)n1
84	i	Cc1ccc(Nc2nn(CC(=O)Nc3cccc(F)c3)c(N)c2S(=O)(=O)c2ccccc2)cc1
85	i	Cc1ccc(Cn2c(SCc3nc(-c4ccccc4C)no3)nc3cc4c(cc3c2=O)OCO4)o1
86	i	O=C(c1cc(OCc2ccccc2)no1)N1CCc2ccccc2C1
87	i	CCOc1ccc(C2NC(=O)NC(C)=C2C(=O)Nc2ccccc2Cl)cc1 (configuration not stated)
88	i	C=CCOCC(O)Cn1c(NC(C)CC)nc2c1c(=O)[nH]c(=O)n2C (configuration not stated)
89	i	CCCCCn1c(C2CC(=O)N(c3ccc(OC)cc3)C2)nc2ccccc21 (configuration not stated)
90	i	CCSC1=NCCN1S(=O)(=O)c1ccc(OC)cc1
91	i	COc1ccc(-c2c(NC(=O)c3cccs3)n(C)c3ccccc3c2=O)cc1
92	i	COc1cccc(NC(=O)Nc2ccc3c(c2)CCCN3C(=O)c2ccccc2)c1OC
93	i	COC(=O)N1CCC(CNC(=O)C2CC(=O)N(c3ccc(C)c(C)c3)C2)CC1 (configuration not stated)
94	i	CC(C)(C)OC(=O)Cn1nc2c(S(=O)(=O)N3CCN(c4ccc(F)cc4)CC3)cccn2c1=O
95	i	O=C(NCCOc1ccccc1)NCC1(CO)CC1
96	i	O=C(CN1CC(c2nc(-c3cccc(Cl)c3)no2)C1)NCc1ccc2c(c1)OCO2
97	i	C=CCOCC(O)Cn1c(NCCc2ccccc2)nc2c1c(=O)[nH]c(=O)n2C (configuration not stated)
98	i	COc1ccc(-c2c(C)oc3cc(OCCN4CCCCC4)ccc3c2=O)cc1
99	i	Cc1cc(C)cc(-n2ncc3c2ncn2nc(C4CCCO4)nc32)c1 (configuration not stated)
100	i	CC(=O)N1CCN(c2cc3c(cc2F)c(=O)c(C(=O)O)cn3C2CC2)CC1
101	i	COc1ccc(F)cc1S(=O)(=O)NCC1CCN(c2cnccn2)CC1
102	i	Cc1ccc(-c2noc(-c3ccc(=O)n(CC(=O)Nc4ccc(C(C)C)cc4)c3)n2)cc1
103	i	Cc1noc(-c2ccc(N3CCCC(C(=O)NCC4COCCO4)C3)nc2)n1 (configuration not stated)
104	i	O=C(c1nc2ccccc2s1)N(Cc1ccsc1)Cc1ccco1
105	i	O=C(CCN1C(=O)c2ccccc2C1=O)CN1CCC(Cn2cnc3ccccc32)CC1
106	i	COc1ccc2nc(OC3CN(C(=O)c4ccsc4)C3)sc2c1
107	i	COc1cccc(-c2[nH]ncc2-c2nc(-c3ccc(Br)cc3)no2)c1
108	i	CC(C)NC(=O)Nc1nc2c(s1)CN(S(=O)(=O)c1ccc3c(c1)OCCO3)CC2
109	i	CC(=O)c1ccc(S(=O)(=O)NCC2(c3ccccc3)CCOCC2)cc1
110	i	COc1ccc(SCC(=O)OC2CN(c3nc4c(OC)cccc4s3)C2)cc1
111	i	CC(=O)c1ccc(NC(=O)CN2C(=O)CC(c3ccc(C)cc3C)=Nc3ccccc32)cc1
112	i	CC(C)c1nccn1CC1CCN(C(=O)c2cc(-c3ccccc3)on2)CC1
113	i	Cc1ccc(NC(=O)Cn2nc3c4c(cccc4c2=O)-c2ccccc2-3)cc1C
114	i	Cc1ccnc(NS(=O)(=O)c2ccc(NC(=O)c3coc(NC(=O)C4CC4)n3)cc2)n1
115	i	COc1ccc(S(=O)(=O)Nc2ccc3c(c2)CCCN3C(=O)c2ccccc2)cc1Cl
116	i	Cc1ccnc(Nc2cc(NCCNC(=O)c3snnc3C)nc(C)n2)c1
117	i	CCOc1ccccc1NC(=O)c1ccc(F)c(S(=O)(=O)N2CCN(c3ccccc3F)CC2)c1
118	i	CCCCn1c(=O)c2c(nc3n2CC(C)CN3c2ccc(Oc3ccccc3)cc2)n(C)c1=O (configuration not stated)
119	i	CN(C)S(=O)(=O)c1ccc2c(c1)CCN2C(=O)c1c[nH]c2ccc(F)cc2c1=O
120	i	COc1ccc(Cl)cc1NC(=O)Cn1cccc(-c2nc(-c3ccccc3)no2)c1=O
121	i	CCCCc1ccc(NC(=O)c2nc(SC)ncc2Cl)cc1
122	i	Cc1c(C(=O)NCc2nc(-c3ccccc3)no2)cnn1-c1ccccc1
123	i	O=C(C1CC=CCC1)N1CCN(CCn2cccn2)CC1 (configuration not stated)
124	i	Cc1nc(NC(=O)C2CSCCC(=O)N2)sc1C (configuration not stated)
